High-throughput results deposited in PubChem BioAssay by several laboratories.
Mtb betalactam = beta-lactam sensitization of Mtb H37Rv; M. tuberculosis H37Rv growth with meropenem, percent inhibition; hits of this screen are not shown here; inhibition, % at 25 µM; actives 0.27% (n = 330,000);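 active means about 74% or more and at least 40 points above the plate without the antibiotic, then above 30% in a dose series; inconclusive means first-round hits that could not be retested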;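 further: growth measured after seven days incubation then overnight dye step; 0% = bacteria only wells and 100% = bacteria with antibiotic; twin plates without the antibiotic show which effects depend on it; some results filed as inactive read as strong as hits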
RecA intein inh = Mtb RecA intein splicing inhibition; cell-free RecA intein splicing, fluorescence; P9WHJ3; AID 2221; inhibition, %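 (about 9 µM by stock and volumes)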; actives 0.75% (n = 290,000); in the data active means inhibition above about 30%; inconclusive means no clear call, values can overlap the other calls;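 further: 0% = vehicle wells and 100% = reference inhibitor control wells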
Target sequence (P9WHJ3 whole entry, looked up): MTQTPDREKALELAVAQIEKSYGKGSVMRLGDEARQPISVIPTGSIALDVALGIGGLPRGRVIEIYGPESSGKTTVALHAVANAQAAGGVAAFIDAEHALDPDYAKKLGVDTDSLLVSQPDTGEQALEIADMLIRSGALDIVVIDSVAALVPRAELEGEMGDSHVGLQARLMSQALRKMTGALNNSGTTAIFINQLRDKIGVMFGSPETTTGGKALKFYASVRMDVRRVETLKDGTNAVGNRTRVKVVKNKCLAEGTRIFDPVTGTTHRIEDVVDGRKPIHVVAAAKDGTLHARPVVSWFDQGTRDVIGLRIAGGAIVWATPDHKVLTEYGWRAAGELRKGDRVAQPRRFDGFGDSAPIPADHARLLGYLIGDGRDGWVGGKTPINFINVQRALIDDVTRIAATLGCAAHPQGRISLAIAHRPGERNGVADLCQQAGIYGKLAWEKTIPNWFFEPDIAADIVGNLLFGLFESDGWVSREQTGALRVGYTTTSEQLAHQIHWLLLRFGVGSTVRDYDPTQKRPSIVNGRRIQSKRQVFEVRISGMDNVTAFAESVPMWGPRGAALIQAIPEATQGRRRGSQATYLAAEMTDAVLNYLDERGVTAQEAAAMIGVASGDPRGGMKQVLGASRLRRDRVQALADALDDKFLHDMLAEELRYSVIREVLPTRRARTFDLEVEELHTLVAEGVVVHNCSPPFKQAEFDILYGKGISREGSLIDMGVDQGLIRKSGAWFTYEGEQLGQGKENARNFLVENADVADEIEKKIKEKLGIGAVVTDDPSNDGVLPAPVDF
Mtb growth = M. tuberculosis H37Rv growth inhibitors, H37Rv strain (AID 1626); inhibition, % at 10 µM; hits with a dose series show IC50 in µM; M. tuberculosis H37Rv growth inhibition; higher % means a stronger effect; actives 0.95% (n = 220,000);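 active means confirmed in a dose series; inconclusive means inhibition above 80% but not taken into the dose series; inactive means below 80% or under 30% at every dose of the series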;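 further: bacteria incubated seven days before Alamar blue readout; 0% = bacteria only wells and 100% = bacteria with antibiotic wells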
YopH PTP inh = blocks Yersinia enterocolitica YopH tyrosine phosphatase; fluorescence Ex485/Em525; inhibition, %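 (about 10 µM by stock and volumes)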; actives 0.16% (n = 140,000);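 active means inhibition of 50% or more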;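 further: controls were vehicle for no effect and minimum signal wells for full effect; inactives centre near -20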
Arbovirus anti = antivirals against arbovirus infection | arbovirus infection cell-based antiviral screen | AID 1251 | inhibition, % at 10 µM | actives 0.37% (n = 200,000);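 active means inhibition from about 30%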;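 further: bluetongue infection of BSR cells; cell survival read as ATP light after 72 h; 0% = infected wells without compound and 100% = uninfected wells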
Arbovirus anti repeat = further read-out of Arbovirus anti, marked with its call; inhibition, %; measured here: 10K subset replicate screen; many hits read low in the repeat;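 first of two repeat runs on a subset; 0% = infected and 100% = uninfected wells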
Numbers without * were called inactive; ? = inconclusive; · = not tested or not shown. The list is partial. The share of hits here may be higher or lower than overall.

SMILES | Mtb betalactam | RecA intein inh | Mtb growth | YopH PTP inh | Arbovirus anti | others
Cc1ccc(NC(=O)c2ccccc2Cl)cc1-n1cnnn1 | -7 | 4.2 | -8% | · | -9
CNC(=S)/N=C(\Nc1ccc(C)cc1)c1ccccc1 | -5 | 4.3 | 0% | · | ·
CC(C)COP(=O)(OCC(C)C)C(Nc1ccccc1)c1ccc2c(c1)OCO2 (stereo unspecified) | -7 | 0.1 | · | -26 | -12
CC(C)C[C@@]12C(=O)N(c3cccc(Cl)c3)C(=O)N1[C@H](c1ccc(Cl)cc1)[C@@H]1C(=O)N(C3CCCCC3)C(=O)[C@@H]12 | -10 | 7.1 | · | · | ·
COc1cc2nc(NCC3CCCO3)n3nc(-c4cccnc4)nc3c2cc1OC (stereo unspecified) | 12 | · | · | 18 | -11
O=c1nc(/C=C/c2ccc(O)c(O)c2)oc2ccccc12 | · | -7.4 | -1% | · | ·
O=C1/C(=C/c2cccnc2)Oc2cc(OS(=O)(=O)c3ccccc3)ccc21 | 99 | 5.5 | ? | -20 | 2
COc1ccc(CCNC(=O)C(NS(=O)(=O)c2ccc3c(c2)CCN3C(C)=O)C(C)C)cc1OC (stereo unspecified) | 4 | -2.5 | 0% | · | 6
O=C(CCc1nc(-c2ccc(Cl)cc2)no1)NC1CCCCC1 | 0 | -0.4 | · | · | ·
OC(COCc1ccc(Cl)cc1)CN1CCN(c2ccccn2)CC1 (stereo unspecified) | 0 | 5.0 | 6% | -16 | -9
O=C(NCC1CCCO1)C1CC(=O)N(c2cccc(Cl)c2)C1 (stereo unspecified) | -2 | 0.9 | · | · | ·
Cc1cc(Cl)ccc1OCC(=O)NNC(=O)c1cccs1 | -9 | 4.6 | · | · | ·
N=C1SCC(=O)N1Cc1ccccc1 | 1 | -3.8 | 1% | · | 2
CN(c1ccccc1)S(=O)(=O)c1ccc2ccccc2c1 | 1 | 8.6 | · | · | ·
COc1ccc(NC(=O)CSc2ncc(-c3ccc(F)cc3)n2Cc2ccco2)cc1 | -9 | 0.4 | 2% | -9 | -15
COC(=O)c1ccc(S(=O)(=O)NCc2ccccn2)n1C | 4 | -0.3 | -6% | · | ·
Cc1cc(C(=O)OCC(=O)c2ccc(Cl)c([N+](=O)[O-])c2)c2cccc(C)c2n1 | 1 | 3.8 | 1% | -4 | 4
O=C(O)Cn1cc(/C=C/[N+](=O)[O-])c2ccccc21 | -1 | 2.3 | -2% | · | 21
CCCc1nc(SCC(=O)Nc2cc(C)on2)c2c(=O)n(C)c(=O)n(C)c2n1 | -2 | -0.7 | 6% | -39 | 2 | Arbovirus anti repeat=5
CCCn1nnnc1NC(=O)COc1ccc(Cl)cc1C | · | 0.7 | · | -47 | -10
CNC(=S)N(Cc1ccccc1)Cc1cccnc1 | -13 | · | -8% | · | ·
COc1ccc(NC(=O)c2cc(CN3C(=O)c4ccccc4C3=O)ccc2OC)cn1 | -3 | 6.3 | 6% | -49 | -8
Fc1ccccc1Cn1nnc2c(NCCc3ccccn3)ncnc21 | 0 | -0.7 | -10% | -38 | 0
CC(=O)c1ccc2c3c(cccc13)C(=O)N(c1c(C)nn(C)c1C)C2=O | -10 | · | 4% | -13 | -3
CC(C)=CC(=O)Nc1nc2ccc([N+](=O)[O-])cc2s1 | · | 2.1 | 0% | · | -10

Retrieved one by one from the entries so far, four records:
SMILES | Mtb betalactam | RecA intein inh | Mtb growth | YopH PTP inh | Arbovirus anti | others
Cc1cc(Cl)ccc1OCC(=O)NNC(=O)c1cccs1 | -9 | 4.6 | · | · | ·
CCCc1nc(SCC(=O)Nc2cc(C)on2)c2c(=O)n(C)c(=O)n(C)c2n1 | -2 | -0.7 | 6% | -39 | 2 | Arbovirus anti repeat=5
CC(=O)c1ccc2c3c(cccc13)C(=O)N(c1c(C)nn(C)c1C)C2=O | -10 | · | 4% | -13 | -3
Cc1cc(C(=O)OCC(=O)c2ccc(Cl)c([N+](=O)[O-])c2)c2cccc(C)c2n1 | 1 | 3.8 | 1% | -4 | 4

The listing continues:
SMILES | Mtb betalactam | RecA intein inh | Mtb growth | YopH PTP inh | Arbovirus anti | others
NC(=O)C1CCN(S(=O)(=O)c2cccc(S(=O)(=O)N3CCCCC3)c2)CC1 | -9 | -1.3 | · | -51 | 3
CCOC(=O)c1ccc2[nH]c3ccccc3c2c1 | 1 | -0.1 | 27% | · | -2 | Arbovirus anti repeat=-1
CCOc1ccc2c(c1)-c1c(ssc1=S)C(C)(C)N2C(=O)c1ccco1 | 11 | -5.1 | 7% | -18 | -10
C=CCN(C(=O)Nc1ccccc1)C1CC(=O)N(c2ccc(OC)cc2)C1=O (stereo unspecified) | -13 | -1.0 | -6% | -9 | 5
O=C(N/N=C/c1ccc2cccnc2c1)c1ccco1 | -4 | -2.5 | 2% | · | -7
O=C(Nc1cccnc1)c1cc(-c2ccco2)on1 | -2 | -0.7 | -8% | -31 | 4
Cc1nc2nc(CSc3ccc(Cl)cc3)cc(=O)n2[nH]1 | 12 | -2.1 | 2% | -18 | 2
O=C(NCCCN1CCCC1=O)NC1CCCCC1 | -1 | -1.2 | -9% | -26 | 7
O=C(NC1CCN(C(=S)NCc2ccco2)CC1)C12CC3CC(CC(C3)C1)C2 | 0 | 1.7 | 0% | -11 | -1
CC(C(=O)Nc1ccccc1)N(C)CCOc1ccccc1 (stereo unspecified) | 2 | 3.5 | · | · | ·
Cc1cccc(OCC(=O)Nc2nc3ccc([N+](=O)[O-])cc3s2)c1C | 11 | 0.1 | · | -19 | 4
CCCc1cc(N2CCCC(C(=O)Nc3cc(Cl)ccc3OC)C2)n2ncnc2n1 (stereo unspecified) | -3 | · | · | -29 | ·
CCOc1ccc(C(=O)NC2CCN(C(=O)Nc3ccccc3OC)CC2)cc1 | -4 | 1.0 | -10% | 1 | -1
Cc1ccc2occ(C(=O)c3ccco3)c(=O)c2c1 | 5 | -0.3 | -2% | -18 | -1
O=C(N/N=C\c1ccc(Oc2ccccc2)cc1)c1csnn1 | 3 | 3.7 | 4% | · | -6
CC1CCN(S(=O)(=O)c2ccc3c(c2)oc(=O)n3CC(=O)N2CCc3ccccc3C2)CC1 | 3 | -3.5 | -7% | -59 | -8
COc1cccc(Cn2cccc(NC(=O)Nc3cccc(C#N)c3)c2=O)c1 | 3 | 0.6 | · | · | ·
COc1ccccc1N1C(=O)C2C3C=CC(C3)C2(C)C1=O (stereo unspecified) | -14 | -2.2 | -13% | -30 | 0
Cc1ccc(C(=O)NCC(c2ccc(F)cc2)N2CCOCC2)cc1 (stereo unspecified) | -8 | -0.9 | -1% | · | ·
Cc1cccc(-n2cc(-c3ccccc3)c3c(N4CCOCC4)ncnc32)c1 | 73 | 13 | 18% | · | -11
CCOC(=O)c1oc2cccc(OCC(O)CNC(C)C)c2c1C (stereo unspecified) | -17 | 1.8 | · | -47 | -14
COc1cc(OC)cc(C(=O)NCC(=O)OCC(=O)Nc2ccc3c(c2)OCO3)c1 | -7 | 0.5 | -5% | · | -4
O=C(Nc1ccncc1)c1ccc(S(=O)(=O)Nc2ccccc2)cc1 | 2 | 0.7 | 5% | · | 12
O=C(CN1CCCCC1)Nc1nnc(-c2ccccc2)s1 | 3 | -2.6 | -4% | -20 | 8 | Arbovirus anti repeat=1
O=C(NC(=S)N1CCN(c2ccc(O)cc2)CC1)c1cccs1 | -1 | -4.6 | 3% | · | ·

Part of the list above in order of count of non-hydrogen atoms, high to low.
SMILES | Mtb betalactam | RecA intein inh | Mtb growth | YopH PTP inh | Arbovirus anti | others
O=C(NC1CCN(C(=S)NCc2ccco2)CC1)C12CC3CC(CC(C3)C1)C2 | 0 | 1.7 | 0% | -11 | -1
CCOc1ccc2c(c1)-c1c(ssc1=S)C(C)(C)N2C(=O)c1ccco1 | 11 | -5.1 | 7% | -18 | -10
CC(C(=O)Nc1ccccc1)N(C)CCOc1ccccc1 (stereo unspecified) | 2 | 3.5 | · | · | ·
O=C(NCCCN1CCCC1=O)NC1CCCCC1 | -1 | -1.2 | -9% | -26 | 7

(cont.)
SMILES | Mtb betalactam | RecA intein inh | Mtb growth | YopH PTP inh | Arbovirus anti | others
CSC1=NC2(CCCCC2)CC12C=CC(=O)C=C2 | -4 | 6.4 | 5% | · | 8
O=C(NC(=S)Nc1cccc2c(O)cccc12)c1ccco1 | 1 | 2.8 | · | · | ·
C=CCN(C(=O)c1csnn1)C(C(=O)NCc1ccc(F)cc1)c1sccc1C (stereo unspecified) | 2 | 0.2 | · | · | ·
Fc1ccccc1/C=N/n1cc(-c2ccccc2)[nH]c1=S | -4 | 1.6 | 3% | · | ·
CCOC(=O)/C=c1\s/c(=C\c2ccc(C#N)cc2)c(=O)n1CC(=O)Nc1cccc(C)c1C | -4 | -3.2 | -2% | · | -6
CCn1nc(NC(=O)C2CCCO2)c2cc3cc(C)ccc3nc21 (stereo unspecified) | -6 | -53 | 7% | · | -11
CC(C)C1N(C(=O)CN2CCCC2)CCN1S(=O)(=O)c1ccccc1 (stereo unspecified) | -13 | -1.7 | -5% | -35 | 0
CCOC(=O)c1nnc(-c2ccccc2)nc1NC | -23 | -1.9 | 3% | -16 | 10
O=C(O)c1cn(C2CC2)c2cc(N3CCN(S(=O)(=O)c4ccc5c(c4)OCCO5)CC3)c(F)cc2c1=O | 93 | -1.6 | ? | · | 2
COc1cccc(NC(=O)c2cc(-c3ccc(C)o3)nc3ccccc23)c1 | -10 | -2.0 | · | · | ·
Nc1ncncc1-c1ccc2ccccc2c1 | 0 | 0.0 | · | · | ·
O=c1c2c(-c3cccs3)csc2ncn1/N=C/c1ccc(OC(F)F)cc1 | 1 | -8.1 | -3% | -34 | 6
O=C1OCc2cc(N=Nc3c(O)[nH]c(=O)[nH]c3=O)ccc21 | -2 | · | -9% | · | ·
CC(=O)N1CCN(S(=O)(=O)c2ccc(F)c(Cl)c2)CC1 | -6 | -2.3 | 0% | · | 7
O=C(NCc1ccccc1)C(c1ccccc1F)N(CC1CCCO1)C(=O)c1ccccn1 (stereo unspecified) | 4 | 0.1 | · | · | ·
COc1cc(O)c(C(CCN2CCN(c3ccccc3)CC2)c2cc(OC)c(OC)c(OC)c2)c(OC)c1 (stereo unspecified) | 55 | 4.8 | -3% | · | ·
CC(C)(C)c1ccc(CN2C(=O)c3ccccc3S2(=O)=O)cc1 | 2 | 1.3 | · | · | ·
O=C(/C=C\Nc1cccc(F)c1)c1ccc2c(c1)OCO2 | 9 | -2.4 | -7% | 44 | -8
CC(=O)N/C(=N/c1nc(C)cc(C)n1)Nc1cccc(C)c1C | -6 | 1.3 | · | · | ·
O=C(CN1c2ccccc2Sc2ccccc21)NNC(=O)Nc1cccc(Cl)c1 | -5 | -0.1 | 8% | · | ·
CCn1nc(C)c(CN2CCN(Cc3ccc(OC)c(C)c3C)C(CCO)C2)c1C (stereo unspecified) | 4 | -2.2 | -8% | · | -7
Cc1c(C(=O)Nc2ccc(S(N)(=O)=O)cc2)oc2ccc(Cl)cc12 | -4 | 0.4 | -6% | · | -5
CCOc1ccc(Oc2ccc(Cl)cc2NC(=O)CCNC(C)=O)cc1 | -12 | 0.7 | 2% | · | 1
COc1ccc(CC(=O)NCC2CCCN(Cc3ccccc3OC)C2)cc1 (stereo unspecified) | 2 | 3.2 | · | · | ·
CC(C)N1C(=O)CCC1C(=O)NC1CCCC1 (stereo unspecified) | -5 | -1.2 | -2% | -42 | 0

Next section, starting with the last 2 of the part before.
SMILES | Mtb betalactam | RecA intein inh | Mtb growth | YopH PTP inh | Arbovirus anti | others
COc1ccc(CC(=O)NCC2CCCN(Cc3ccccc3OC)C2)cc1 (stereo unspecified) | 2 | 3.2 | · | · | ·
CC(C)N1C(=O)CCC1C(=O)NC1CCCC1 (stereo unspecified) | -5 | -1.2 | -2% | -42 | 0
Cc1cc(C(=O)NC2CCCc3ccccc32)ccc1[N+](=O)[O-] (stereo unspecified) | -5 | 1.7 | · | · | ·
COC(=O)C1=C(C)N(CCc2ccc(OC)c(OC)c2)C(=O)C1 | -15 | -1.7 | -8% | -34 | 4
Cc1cc(C)cc(N(C)S(=O)(=O)c2nnc(NC(=O)C(C)C)s2)c1 | 0 | 0.2 | · | · | ·
CCC(=O)Nc1cc(SCCO)cc([N+](=O)[O-])c1 | -15 | -3.2 | 4% | 16 | -3
c1ccc2nc(N3CCOCC3)cnc2c1 | -8 | -3.0 | · | -11 | 0
C/C(=N\NC(=O)c1ccc(Cl)cc1)c1cccc(NC(=O)C(C)C)c1 | 6 | · | -1% | -29 | -4
N=c1c2c(n(Cc3ccc(F)cc3)c3c1CCC3)CCC2 | 2 | -0.7 | -8% | -47 | 10 | Arbovirus anti repeat=1
